VACV Venus inh – inhibitors of vaccinia virus (Venus reporter) | Vaccinia virus Venus reporter expression, fluorescence | Potency, µM (titrated, usually from 36.5 µM), for the others: at the highest dose activity change, negative = inhibition, usual class: inhibitors | 330,000 compounds, 0.46% hits | AID 720580; active means well fitted inhibition curve with a large enough effect; inconclusive means small, poorly fitted or top-dose-only effect; inactive means no such curve, though single readings can be large or run the other way; tested in A549 cells; also: nearly all actives have a fitted effect of over 30% in size; inactives centre near -10
Vaccinia mCherry – inhibitors of vaccinia virus infection (mCherry reporter signal); 310,000 compounds, 0.63% hits; Vaccinia virus mCherry reporter infection, fluorescence; about a quarter of the inactives have no number; Potency, µM (series often up to 36.5 µM), inactives show at the highest dose activity change, negative = inhibition, actives largely listed as inhibitors; active = well fitted inhibition curve with a large enough effect; inconclusive = small, poorly fitted or top-dose-only effect; inactive = no such curve, though single readings can be large or run the other way; tested in A549 cells; also: nearly all actives have a fitted effect of over 35% in size; inactives centre near -10
Active calls of the source: *; i = inactive; ? = inconclusive; / = not tested or not shown; & = joins results of further samples; [ ] = dose if it differs, or a comment. % is scaled to controls: 0 for no effect and ±100 for the full control effect; potency is read from the fitted curve at half-maximal effect.

SMILES	VACV Venus inh	Vaccinia mCherry
O=C1C2(c3ccccc3)CN(CCCO)CC1(c1ccccc1)CN(CCCO)C2	-7%	-9%
COc1ccc(OCC(=O)NNC(=O)c2cccnc2)cc1	-19%	-13%
CN(C(=O)c1cccc(NC(=O)Cc2cccc(NC(=O)C3CCN(C(=O)C4CCC4)CC3)c2)c1)C1CC1	0%	-4%
CCOC(=O)[C@@H]1[C@H]2COc3cc(OC)ccc3[C@@H]2N2C(=O)N(c3ccc(F)cc3)C(=O)[C@]12C	-14%	i
Cc1cc2ccccc2n1CCNC(=O)COc1ccc2ccccc2c1	4%	i
NS(=O)(=O)c1ccc(CCNC(=O)c2ccc(=O)[nH]c2)cc1	-1%	-1%
CCCCN(C(C)=O)c1c(N)n(CCC)c(=O)n(CC(=O)Nc2cc(Cl)cc(Cl)c2)c1=O	-22%	?
CCOc1ccc(NC(=S)N(CCc2c(C)[nH]c3ccccc23)Cc2cccnc2)cc1	-13%	-23%
Cc1ccc2c(Sc3ccccc3)c(C(=O)NCc3ccccc3F)[nH]c2c1	-13%	-17%
COc1ccc(OC)c(CNc2ccc([N+](=O)[O-])cc2C)c1	-4%	-18%

For reference, some entries already given:
SMILES	VACV Venus inh	Vaccinia mCherry
Cc1cc2ccccc2n1CCNC(=O)COc1ccc2ccccc2c1	4%	i
NS(=O)(=O)c1ccc(CCNC(=O)c2ccc(=O)[nH]c2)cc1	-1%	-1%

(next part)
SMILES	VACV Venus inh	Vaccinia mCherry
Cc1onc(-c2ccccc2Cl)c1C(=O)N1CCN(C)CC1	-9%	3%
COc1ccc(C(=O)NCCc2nnc3n2CCN(CC2CC=CCC2)CC3)cc1 (stereo not drawn)	-8%	-22%
Cn1cc(-c2cc3n(n2)CCC(=O)N3CCCC(=O)NCc2ccc(Cl)cc2)c2ccccc21	-17%	24%
CC1CCC(=NO)C(=NO)C1 (stereo not drawn)	-11%	-16%
COC(=O)c1c(NC(=O)CSc2nccn2C)sc(C)c1C	-12%	-15%
CCOc1ccc(NC(=O)Nc2ccc(Br)cn2)cc1	-6%	i
CC(=O)NC(c1ccccc1)c1nc(-c2ccc(F)c(Cl)c2)cs1 (stereo not drawn)	-2%	0%
COc1cc(N)c(Cl)cc1C(=O)OCC(=O)c1ccc2c(c1)NC(=O)CO2	-12%	-5%
C=CCc1ccccc1Oc1cc(OC)nc(N)n1	-17%	-7%
Cn1ccnc1C(=O)c1cc(SCC(=O)NCc2ccccc2)nc2ccccc12	-6%	-1%
COc1ccc(/C=N/N2C(=N)SCC2=O)cc1	?	i
Cc1ccc(-c2cnc3c(c2)C(=O)N([C@H](C)CO)C[C@H](C)[C@@H](CN(C)Cc2ccccc2F)O3)cc1	-22%	-18%
COc1ccc(C(=O)CN2CCN(S(=O)(=O)c3ccc(C(C)C)cc3)CC2)cc1	-3%	-13%
O=C(CN(CC1CCCO1)C(=O)CCC(=O)Nc1nccs1)NCc1ccc2c(c1)OCO2 (stereo not drawn)	22%	-9%
Cc1nnc(SCC(=O)NC2CCCCC2)[nH]c1=O	7%	-11%
CCC(C)N1C(=O)CN(C2CCCCCC2)C(=O)C1c1ccccc1F (stereo not drawn)	12%	0%
O=C(COc1ccc(Br)cc1CNC1CCCCC1)NCCc1ccccc1	-20%	?
Clc1ccc(CSc2nnc(-c3ccccn3)n2Cc2ccco2)cc1Cl	-8%	-12%
Cc1ccc(C(=O)C2=C(O)C(=O)N(Cc3cccnc3)C2c2cccc([N+](=O)[O-])c2)o1 (stereo not drawn)	-17%	-14%
Cc1cc(C)c2sc(N(Cc3cccnc3)C(=O)CCS(=O)(=O)c3ccccc3)nc2c1	-13%	-1%
CN1Cc2sc(N)c(C#N)c2CC1(C)C	18%	-11%
CCCCNC(=O)CS(=O)Cc1nc(-c2cccs2)oc1C (stereo not drawn)	-4%	18%
O=C(NCCC1=CCCCC1)C(=O)NCC(c1ccco1)N1CCN(c2ccc(F)cc2)CC1 (stereo not drawn)	4%	i
Cc1ccc(C)n1CCN1CCN(C(=O)CSc2nc3ccccc3nc2N2CCOCC2)CC1	-20%	/
COc1ccc(N(CC(O)Cn2c(C)nc3ccccc32)S(=O)(=O)c2ccc(C)cc2)cc1 (stereo not drawn)	-10%	-13%
O=C1CCC(=O)c2oc3ccccc3c2N1	-23%	/
CCCCC(=O)Nc1ccc(NC(=O)c2ccc([N+](=O)[O-])cc2Cl)cc1OC	-10%	-10%
CCNc1nc(NCC)n2c(SCC(=O)Nc3ccc(CC)cc3)nnc2n1	-7%	-16%
O=C(CC1NCCNC1=O)OCCCc1ccccc1 (stereo not drawn)	-2%	-9%
CN(C)C(=O)CSc1nc(SCC(=O)N(C)C)n(-c2ccccc2)n1	-7%	-9%
Cc1ccc(C(=O)c2ccc(N3CCN(C)CC3)c([N+](=O)[O-])c2)cc1	-15%	-23%
CC1=C(C(=O)Nc2ccccc2)C(c2ccncc2)C(C#N)=C(SCC(=O)NC2CC2)N1 (stereo not drawn)	-10%	/
COc1ccc(CCNS(=O)(=O)c2ccc(-n3cnnn3)cc2)cc1OC	-1%	i
COc1cc(CCC(=O)OCC(=O)Nc2nc(C)c(Cl)cc2Cl)cc(OC)c1OC	-10%	-11%
CCOc1ccc(CN(C)C(=O)CCN2C(=O)c3ccccc3C2=O)cc1OC	-3%	i
C/C(=N\NC(=S)NC(C)C)c1ccc(C(C)(C)C)cc1	-12%	-4%
C/C(=N/NC(=O)C1COc2ccccc2O1)c1ccc(Br)s1 (stereo not drawn)	-10%	-1%
Cc1cc(NC(=O)c2ccco2)sc1C	-6%	-15%
O=C(CCn1nc(-c2ccc(Cl)cc2)ccc1=O)NCCCN1CCCCCC1	-20%	-15%[1.46 µM]
CC(C)(C)c1ccccc1NC(=O)Nc1nc(C(N)c2ccccc2Cl)cs1 (stereo not drawn)	-13%	i

Among those listed so far, these contain an NH in an aromatic ring.
SMILES	VACV Venus inh	Vaccinia mCherry
NS(=O)(=O)c1ccc(CCNC(=O)c2ccc(=O)[nH]c2)cc1	-1%	-1%
CCOc1ccc(NC(=S)N(CCc2c(C)[nH]c3ccccc23)Cc2cccnc2)cc1	-13%	-23%
Cc1ccc2c(Sc3ccccc3)c(C(=O)NCc3ccccc3F)[nH]c2c1	-13%	-17%
Cc1nnc(SCC(=O)NC2CCCCC2)[nH]c1=O	7%	-11%

(list continues)
SMILES	VACV Venus inh	Vaccinia mCherry
C[N+](C)(CCOc1ccccc1)Cc1ccccc1 (tested in a mixture with another compound)	-4%	i
CC(C)N(CCCNC(=O)c1nn(C)c2c1CS(=O)(=O)c1ccccc1-2)Cc1ccccc1	-20%	-9%
NC(=O)C1=C(N)c2ccccc2C1c1ccccc1 (stereo not drawn)	-8%	-26%
O=C(Cn1c(=O)n(Cc2ccco2)c(=O)c2ccccc21)Nc1cccc(Cl)c1	-6%	i
O=C(NN1C(=O)c2ccccc2NC1c1ccco1)c1ccccc1 (stereo not drawn)	-5%	2%
COC(=O)C1=C(C)NC(C)=C(C(=O)OCC2CCCO2)C1c1cccc(Br)c1 (stereo not drawn)	-12%	-18%
COc1ccccc1CNC(=O)C1CCN(c2nc3ccc(Cl)cc3[nH]2)CC1	-8%	-8%
COc1ccc(CCN(C)C(=O)c2ccc(S(=O)(=O)Nc3ccccc3F)cc2)cc1OC	-15%	-15%
COc1cc(/C=N/N=C2\CC3CCC2(C)C3(C)C)ccc1O (stereo not drawn)	-8%	-5%
CCOc1ccc(N2CC(C(=O)NCCC3=CCCCC3)CC2=O)cc1 (stereo not drawn)	-5%	-19%

Exported with two lines to a compound: 3 of the compounds above.
Value order: VACV Venus inh	Vaccinia mCherry
COc1ccc(OC)c(CNc2ccc([N+](=O)[O-])cc2C)c1
    -4%	-18%
CCOc1ccc(NC(=S)N(CCc2c(C)[nH]c3ccccc23)Cc2cccnc2)cc1
    -13%	-23%
COc1ccc(CCNS(=O)(=O)c2ccc(-n3cnnn3)cc2)cc1OC
    -1%	i

Continuation.
SMILES	VACV Venus inh	Vaccinia mCherry
Cc1cccc(NC(=O)CNC(=O)CCc2nc3sc4c(c3c(=O)[nH]2)CCCC4)c1C	-5%	i
COc1ccc([C@@H]2CC=C(C(=O)O)[C@H](c3ccc(C(C)(C)C)cc3)N2S(=O)(=O)c2ccc(C)cc2)cc1OC	0%	-19%
CCN(CC(=O)Nc1c(F)cccc1F)C(=O)c1ccc(S(=O)(=O)N2CCC(C)CC2)cc1	-18%	-18%
CN(C)S(=O)(=O)c1ccc(C(=O)OCC(=O)NCc2ccccc2)cc1	-8%	-5%
C=CCNC(=O)c1onc(CSc2ccc(F)cc2)c1C(=O)NCCOC	-7%	i
O=C(NCc1ccc(F)cc1F)[C@@H]1CCCN1C(=O)[C@@H]1CCCN1C(=O)c1cccs1	8%	-1%
CC(C)CN(CC(C)C)c1ccc(C=C2C(=O)NC(=S)NC2=O)cc1[N+](=O)[O-]	-6%	-9%
CC(C)CCN(C(=O)CNC(=O)c1ccco1)C(C(=O)NC1CCCCC1)c1ccco1 (stereo not drawn)	0%	-4%
CCOc1ccc(NC(=O)CSc2oc(-c3ccccc3)nc2S(=O)(=O)c2ccc(Cl)cc2)cc1	?	?
O=C(O)c1[nH]c(=O)[nH]c(=O)c1F	1%	-6%
COc1ccccc1-c1nnc(SCC(=O)N2CCC(C)CC2)o1	?	/
O=C(N1CCOCC1)C1(c2ccc(Cl)cc2)CCCC1	-23%	/
COc1ccc(C2C=C(C)Oc3c2c(=O)oc2ccccc32)cc1OC (stereo not drawn)	-16%	-10%
O=C(Nc1nc(-c2ccccc2)c(-c2ccccc2)s1)c1ccc(S(=O)(=O)N2CCCC2)cc1	-6%	-4%
O=S(=O)(c1ccccc1F)N(Cc1ccco1)Cc1nnc(-c2ccccc2Br)o1	-5%	i
COc1ccc(CNC(=O)Oc2ccccc2)cc1Cl	-19%	-3%
O=C(c1cccc(S(=O)(=O)N2CCOCC2)c1)N1CCN(C/C=C/c2ccccc2)CC1	-8%	i
NCCc1nnc(SCC(=O)c2ccc(Cl)cc2)o1	-10%	i
O=C(Cn1ncc2c(=O)oc3ccccc3c21)NCCCN1CCCC1=O	-3%	-7%
O=C(CSCc1ccc(Br)cc1)NC1CC1	-10%	-6%
O=C(c1ccco1)N1CCN(S(=O)(=O)c2cccc(Cl)c2)CC1	-19%	-16%
Cc1ccc2c(c1)[nH]c1c(N3CCN(Cc4ccccc4)CC3)ncnc12	?	?
CCC(C)[C@H]1COCCS(=O)(=O)N1Cc1ccc(Br)cc1 (stereo partly drawn)	-5%&-13%	-2%
Cc1[nH]c2ccccc2c1CN1CCC(Cc2ccccc2)CC1	-30%	-23%
Cn1c(N)c(C(=O)COC(=O)c2ncc(Cl)c(Cl)c2Cl)c(=O)n(C)c1=O	1%	-6%
CCOC(=O)c1cnc2c(C#N)c(C)nn2c1-c1ccccc1	-6%	i
COc1ccc(C(C(=O)NCc2ccccc2)n2c(=O)c(-c3ccco3)nc3ccccc32)cc1 (stereo not drawn)	-17%	-3%
Cc1ccccc1Cn1c2ccccc2c2cnn(CC(=O)NCCCN3CCOCC3)c(=O)c21	-21%	-7%
Cc1ccc(C)c(NC(=O)CSc2nnc(Cc3cccn3C)n2-c2ccc(F)cc2)c1	2%	-10%
COCOCCn1cc(CN2CCS(=O)(=O)N(Cc3ccc(-c4ccc(Cl)c(Cl)c4)cc3)C(C(C)C)C2=O)nn1 (stereo not drawn)	?	-30%
CCCCN(C)C(=O)C1CCN(CCCc2ccccc2)CC1	-11%	-14%
Cc1ccc(-c2nc3ccccc3n3nnnc23)cc1	0%	-7%
COc1cc(OC)nc(-n2ncc(Br)c(Br)c2=O)n1	11µM*	?
COc1ccc(C2=NN(CC(=O)NCc3ccco3)C(=O)CC2)cc1	-17%	-1%
CC(Sc1nnc(Nc2ccccc2)s1)C(=O)NC1CCCc2ccccc21 (stereo not drawn)	-21%	-16%
Cc1ccc(-c2c(C(=O)NCc3ccc(F)cc3)oc(=O)c3ccccc23)cc1	0%&-26%	-10%&-10%
CCC1NC(=O)c2cccnc2-n2c1nc1cc(F)ccc1c2=O (stereo not drawn)	-12%	-11%
COC(=O)c1ccc(NC(=O)c2cc3c(CO)cnc(C)c3oc2=Nc2cccc(C(N)=O)c2)cc1	-17%	-5%
Cc1ccc(CN(C(=O)COc2ccc(Cl)c(C)c2)c2ccccn2)o1	-11%	i
Cc1ccc(C)c(CSc2ccc3nnc(CCNS(=O)(=O)c4ccccc4)n3n2)c1	-20%	-16%
CC(C)N1CCC1(C)C(=O)Nc1cccc2ccccc12 (stereo not drawn)	-3%	-29%
COc1ccc(OC)c(NC(=O)CSc2nnc(CNc3ccc(C)cc3C)o2)c1	-8%	-15%
O=C(C[n+]1cccc(I)c1)c1ccc(F)cc1	-13%	-7%
CCc1cccc(NC(=O)CCCCCC2NC(=O)NC2C)c1 (stereo not drawn)	-10%	i
CC(C)C(NC(=O)CSCc1ccc([N+](=O)[O-])cc1)C(C)C	-15%	-22%
O=c1[nH]c(Cc2ccccn2)nc2scc(-c3ccccc3Cl)c12	20%	-18%
CC(C)C(=O)Nc1nnc(S(=O)(=O)N(C)c2ccc(Cl)cc2)s1	-9%	-24%
Cc1cccc(C)c1OCCCCN1CCNCC1	2%	-20%
CC(=O)c1c(C)[nH]c(C(=O)CSc2nnc(C)s2)c1C	-3%	-14%
CC(=O)Nc1ccc(CN(C)c2c(C)nc3ccc(C(=O)N(C)Cc4ccco4)cn23)cc1	-1%	7%

This is a random part of the collection; 0.82% or so of the library scored in one or more.
